Vaccinia mCherry = inhibitors of vaccinia virus infection (mCherry reporter signal); Vaccinia virus mCherry reporter infection, fluorescence; about a quarter of the inactives have no number; Potency, µM (titrated, usually from 36.5 µM), for inactives: at the top dose activity change, negative = inhibition, actives largely listed as inhibitors; 310,000 tested, 0.63% active; AID 720579; active = well fitted inhibition curve with a large enough effect; inconclusive = small, poorly fitted or top-dose-only effect; inactive = no such curve, though single readings can be large or run the other way; tested in A549 cells; also: nearly all actives have a fitted effect of over 35% in size; inactives centre near -10
Vaccinia Venus = inhibitors of vaccinia virus (Venus reporter) | 330,000 tested, 0.46% active | Vaccinia virus Venus reporter expression, fluorescence | Potency, µM (top dose mostly 36.5 µM), without a hit: at the highest dose activity change, negative = inhibition, most hits filed as inhibitors; active means well fitted inhibition curve with a large enough effect; inconclusive means small, poorly fitted or top-dose-only effect; inactive means no such curve, though single readings can be large or run the other way; tested in A549 cells; also: nearly all actives have a fitted effect of over 30% in size; inactives centre near -10
* = called active by the depositor; i = inactive; u = inconclusive; x = no result given; & = joins results of further samples; [ ] = remark or other dose. % is scaled to controls: 0 for no effect and ±100 for the full control effect; potency is read from the fitted curve at half-maximal effect.

Values in the order – Vaccinia mCherry | Vaccinia Venus
1	CCN1C[C@@H]2[C@@H]3C(=O)N(Cc4ccccc4)C(=O)[C@@H]3[C@](Cc3ccccc3)(C1=O)N2C(=O)c1ccc(C(F)(F)F)cc1
    i | -18%
2	CC(C)CCNC(=O)c1cc(-c2ccncc2)nc2ccc(S(=O)(=O)N3CCOCC3)cc12
    -1% | -11%
3	CCCCNc1c(-c2ccc(OC)c(SC(C)CC)c2)nc2ccc(C)cn12 (centres undefined)
    u | -16%&-9%
4	Cc1ccc(OP(=O)(NCc2ccccc2)Oc2ccc(C)cc2)cc1
    -14% | -18%
5	CCOc1ccc2[nH]c3c(N4CCN(C(=O)c5ccco5)CC4)ncnc3c2c1
    13µM* | -24%
6	Cc1ccc(C(=O)N(CC(=O)NC2CCCCC2)c2ccccc2C)s1
    -4% | -13%
7	CC(=O)N1CCCc2cc(S(=O)(=O)NC(C(=O)NC3CCCCC3)C(C)C)ccc21 (centres undefined)
    -12% | -7%
8	O=C(O)Cc1ccc(NC(=O)c2ccc3c(c2)C(=O)N(Cc2ccco2)C3=O)cc1
    -14% | -11%
9	CCOC(=O)C1=C2c3cc(OC)c(OC)cc3CC(C)(C)N2C(=O)C1=O
    -7% | 4%
10	Cn1ccc2cc(S(=O)(=O)N3CCCN(C(=O)Nc4ccccc4Br)CC3)ccc21
    -6% | 0%
11	COc1cccc(CNc2nc(-c3cccnc3)nc3ccccc23)c1
    -14% | -24%
12	CCCCn1c(SCC(=O)NCc2ccc(OC)c(C(=O)O)c2)nc2cc(S(N)(=O)=O)ccc21
    i | -8%
13	Cc1cccc(NC(=O)c2sc3nc(-c4ccccc4)cn3c2C)n1
    -25% | -23%
14	C/C(=N/NC(=O)c1ccc2c(c1)OCCO2)c1ccc([N+](=O)[O-])cc1
    13% | 0%
15	CC(=O)Nc1ccc(S(=O)(=O)N(C)CC(=O)OC(C)C(=O)NC2CCCCC2)cc1 (centres undefined)
    -18% | -8%
16	O=C(Nc1cccc(-c2nc3ncccc3o2)c1)c1ccccc1
    4% | -20%
17	CCCCNC(=S)NCc1ccc2[nH]c3c(c2c1)CCCC3
    -23% | -21%
18	O=C(COC(=O)c1cc(C(F)(F)F)cc(C(F)(F)F)c1)NCc1ccc(Cl)cc1
    i | -2%
19	COc1cc(/C=C2\SC(=S)N(CC(=O)Nc3cccnc3)C2=O)cc(OC)c1OC
    -3% | 9%
20	CC(=O)c1c(C)[nH]c(C(=O)OCC(=O)NCCc2ccc(Cl)cc2)c1C
    x | -15%
21	CCNC(=O)/C(C#N)=C/c1c(N2CCN(C)CC2)nc2c(C)cccn2c1=O
    -13% | -2%
22	O=C(NC(=S)NCc1cccnc1)c1ccccc1F
    -13% | -2%
23	CCOc1ccc(S(=O)(=O)Nc2cccc(-c3ccc(N4CCC(C)CC4)nn3)c2)cc1
    -23% | -18%
24	C/C=C1\CN2[C@H]3C[C@@]45c6ccccc6N(C)[C@H]4[C@@H]2CC1C3[C@H]5O (some centres undefined)
    -3% | -10%
25	Nc1ccc(S(=O)(=O)NNC(=O)C(=O)NNc2ccccn2)cc1
    -3% | -10%
26	C=CCOc1ccc(CN(C)C(=O)C2CCCO2)cc1 (centres undefined)
    -11% | -17%
27	Cc1ccc(N2CC(c3nnc(Cc4ccc(F)cc4)o3)CC2=O)cc1 (centres undefined)
    -9% | -8%
28	Cc1cccc(NC(=O)Cn2nc(-c3ccco3)ccc2=O)c1C
    i | 6%
29	COc1cc2c(NC3CCN(C)CC3)nc(N3CCCN(C)CC3)nc2cc1OCC1CCCNC1 (centres undefined)
    -15% | -28%
30	CCOc1cc(C(=O)N/N=C(\C)Cc2ccc(OC)cc2)cc(OCC)c1OCC
    u | -24%

Profiles as entered above. Order of values: Vaccinia mCherry	Vaccinia Venus
Profile of COc1cc2c(NC3CCN(C)CC3)nc(N3CCCN(C)CC3)nc2cc1OCC1CCCNC1 (centres undefined) → -15%	-28%
Profile of O=C(COC(=O)c1cc(C(F)(F)F)cc(C(F)(F)F)c1)NCc1ccc(Cl)cc1 → i	-2%

More entries follow:
Values in the order – Vaccinia mCherry | Vaccinia Venus
31	CC1(C)S[C@@H]2[C@H](NC(=O)[C@H](N)c3ccccc3)C(=O)N2[C@H]1C(=O)OC1OC(=O)c2ccccc21 (some centres undefined)
    i | -17%
32	CN1CCS/C1=C/C=C1\SC(=S)N(CC(=O)O)C1=O
    i | 30%
33	Cc1ccc(S(=O)(=O)N2CCCCC2)cc1C(=O)NCc1ccncc1
    i | 0%
34	CCOc1nc(SCCOc2ccc(Cl)cc2Cl)nc(N(C)C)n1
    -20% | -1%
35	CCCCCCCCN1C(=O)[C@H](CC(=O)NCc2cccc3ccccc23)C[C@@]2(C(=O)OCC)CCC=C12
    u | u
36	CCC(C)(C)n1nnnc1C(C(C)C)N1CCN(C(=O)c2ccco2)CC1 (centres undefined)
    -3% | -5%
37	O=C(O)C1CCCCC1C(=O)NCCCN1CCCC1=O (centres undefined)
    i | -15%
38	Cc1nc2ccc(NC(=O)c3ccc([N+](=O)[O-])cc3)cc2s1
    -24% | -16%
39	COc1ccc(NC2CCCN(C(=O)c3ccc(C)nc3)C2)cc1 (centres undefined)
    i | -13%
40	O=C1C2C(c3cccc(/C=C/c4ccccc4)c3)CC=CC2C(c2ccc(C(F)(F)F)cc2)N1Cc1ccccc1 (centres undefined)
    -11% | u
41	CC(NC(=O)C1CCC(C(C)(C)C)CC1)C(c1ccccc1)N1CCOCC1 (centres undefined)
    -11% | -17%
42	O=C(OC(C(=O)NCc1ccccc1)c1ccccc1)c1ccco1 (centres undefined)
    i | -14%
43	CCOC(=O)c1c(-c2ccccc2)cn2c(C)cc(C)nc12
    i | -17%
44	C=CCn1c(SCC(=O)Nc2sccc2C(N)=O)nc2sc(C)c(C)c2c1=O
    -1% | -13%
45	C=CCOC(=O)C1=C[C@H](c2coc3ccccc3c2=O)C[C@H](OCCCCO)O1
    -3% | 2%
46	COc1ccc(CNC(=O)CCC2N=C3c4ccccc4N=C(SCc4cccc(F)c4)N3C2=O)cc1 (centres undefined)
    i | -17%
47	Cc1ccc(NC(=O)C2C3C=CC4(O3)C2C(=O)N(CCCN2CCCCC2)C4C(=O)NC2CCCCC2)cc1C (centres undefined)
    8% | 1%
48	O=c1[nH]c(=O)n(Cc2ccccc2Cl)c(O)c1/C=C1/C=CC=N1
    i | 38%[activator]
49	COc1ccc(Cl)cc1-c1nc(-c2ccc(Br)o2)no1
    i | -15%
50	COc1c2c(cc3oc(CO[C@@H]4O[C@H](CO)[C@@H](O)[C@H](O)[C@H]4O)cc(=O)c13)O[C@H](C(C)(C)O)C2
    10% | -14%
51	COc1ccccc1C(=O)Nc1cc2cc(Br)ccc2oc1=O
    -13% | 2%
52	CSc1nnc(C2CCN(CC(=O)Nc3ccccc3N3CCOCC3)CC2)n1C(C)C
    -6% | -2%
53	COCCN1CCN(C(=O)c2ccc3oc(CCCc4ccccc4)nc3c2)CC1
    -6% | -7%
54	COc1cccc(C2NC(CCSC)(C(=O)O)C3C(=O)N(C(C)C)C(=O)C23)c1O (centres undefined)
    0% | -10%
55	O=c1c2c(-c3ccccc3)csc2nc2n1CCC2
    -5% | -22%
56	Cc1cc(CCN2CCC(=O)NC2=S)ccc1OC(C)C
    i | -15%
57	Cc1ccc(S(=O)(=O)N2CCC(=O)N(C(COCc3ccc(Cl)cc3)Cc3ccccc3)CC2)cc1 (centres undefined)
    -14% | -28%
58	CC(=O)NC(c1ccc(F)c(F)c1)c1nc(-c2ccc3c(c2)OCO3)cs1 (centres undefined)
    -6% | 6%
59	COc1ccccc1OC(C)C(=O)Nc1nc(-c2ccc(S(=O)(=O)N3CCOCC3)cc2)cs1 (centres undefined)
    -24% | -17%
60	CCOc1ccc(Br)cc1/C=N/O
    -17% | -12%
61	S=c1[nH]nc(-c2ccc3ccccc3n2)n1Cc1ccccc1
    i | -11%
62	Cc1ccc(Cn2cc(C=O)c3ccccc32)cc1
    -7% | -24%
63	CCC(CC)c1nnc(NC(=O)CCc2ccccc2OC)s1
    -6% | 12%
64	Cc1ccc(-c2ccc(=O)n(CC(=O)Nc3cccc(C#N)c3)n2)cc1
    -8% | -9%
65	Cc1cnc(C(=O)OCC(=O)NC(=O)NC(C)C)cn1
    x | 0%
66	CCN1CCN(C(c2cccs2)C(C)NS(=O)(=O)c2ccc(Br)cc2)CC1 (centres undefined)
    16% | -15%
67	COc1ccc(C(=O)N2CCN(CCNC(=O)C(=O)Nc3ccc(F)cc3)CC2)cc1
    -9% | -9%
68	CCc1cccc(CC)c1N1C(=O)CC(Sc2ccccc2N)C1=O (centres undefined)
    -4% | -9%
69	COCCOC(=O)C1=C(C)NC2=C(C(=O)CCC2)C1c1ccc2c(c1)OCO2 (centres undefined)
    0% | -16%
70	CC(C)Oc1ccc(-c2nc3c(C#N)c[nH]n3c2NC2CCCCC2)cc1
    u | u
71	NS(=O)(=O)c1ccc(NC(=O)CSc2cn[nH]n2)cc1
    -9% | -8%
72	O=CNC1CCCc2c1[nH]c1ccc(Cl)cc21 (centres undefined)
    -15% | -2%
73	O=C(C1CCCCC1)N1C[C@H](n2cc(C3CC3)nn2)[C@@H](O)C[C@@H]1c1ccccc1
    i | -6%
74	CCCC(C(=O)NC(C)(C)C)N(CC1CCCO1)C(=O)CNS(=O)(=O)c1ccc(F)cc1 (centres undefined)
    -18% | 4%
75	Cc1ccccc1CS(=O)(=O)c1ccc(C(=O)N2CCC(C)CC2)cc1[N+](=O)[O-]
    -6% | -5%
76	COc1ccc(-c2oc(=O)c3cc(OC)c(OC)cc3c2C#CCCCO)cc1
    u | -28%
77	COc1ccc(/C=N/n2cnnc2SCc2ccc(OC)cc2)cc1
    -17%[1.46 µM] | -15%
78	COCCn1c(SCC(=O)N2CCCCCC2)nc2c([nH]c3ccccc32)c1=O
    -12% | -6%
79	CCc1ccc2occ(CC(=O)Nc3ccc(OC)c(Cl)c3)c2c1
    -10% | -16%
80	CCOc1cccc(C(=O)Nc2cccnc2)c1
    x | -18%
81	CCCC1=C(C(=O)OCC)C(c2cc(Cl)cc(OC)c2OCc2ccccc2)NC(=O)N1 (centres undefined)
    -20% | -10%
82	CC1CCN(S(=O)(=O)c2ccc3c(c2)N(CC(=O)NCCCN2CCCC(C)C2)C(=O)CS3)CC1 (centres undefined)
    -12% | -4%
83	COc1ccc(-c2cc3nc(C)c(CCC(=O)Nc4cccc(C(F)(F)F)c4)c(C)n3n2)c(OC)c1
    0% | -3%
84	CC(=O)Nc1ccc(CNc2nc3cc(-c4ccc(F)cc4)sc3c(=O)n2C)cc1
    u | u
85	O=C1C2C3C=CC(C4CC34)C2C(=O)N1/N=C/c1ccc(-c2cccc([N+](=O)[O-])c2)o1 (centres undefined)
    i | 0%
86	Cc1ccc(NC(=O)C2CC(=O)n3ncnc3N2)cc1C (centres undefined)
    0% | 0%
87	O=C1NC[C@H](Cc2ccc(O)cc2)N(C[C@@H]2CCCN2C[C@H](Cc2ccccc2)N2C[C@H](Cc3ccccc3)N(CC3CCCCC3)C(=O)C2=O)C1=O
    -4% | -5%
88	Cc1cc(SCC(=O)Nc2ccc(C(F)(F)F)cc2)nc(=O)[nH]1
    -10% | -9%
89	CC1=C(C)SC(=C(C#N)c2nnc(N3CCOCC3)n2-c2ccccc2)S1
    -13% | -4%
90	CCN1CCN(CCCNC(=O)Cn2cc3c(n2)CCCC3)CC1
    2% | 5%

Arranged by count of non-hydrogen atoms (lowest first): some entries from above
Values in the order – Vaccinia mCherry | Vaccinia Venus
34	CCOc1nc(SCCOc2ccc(Cl)cc2Cl)nc(N(C)C)n1
    -20% | -1%
4	Cc1ccc(OP(=O)(NCc2ccccc2)Oc2ccc(C)cc2)cc1
    -14% | -18%
69	COCCOC(=O)C1=C(C)NC2=C(C(=O)CCC2)C1c1ccc2c(c1)OCO2 (centres undefined)
    0% | -16%

Remaining list, next part.
Values in the order – Vaccinia mCherry | Vaccinia Venus
91	COc1ccc(C(=O)NCc2nc(-c3ccccc3NC(=O)c3cc(C)oc3C)oc2C)cc1F
    -11% | -8%
92	COc1ccc(C=O)cc1OC(=O)C1(C)Cc2ccccc2C(=O)O1 (centres undefined)
    i | -6%
93	O=C1NC[C@H](CCCCN2C[C@@H](Cc3ccccc3)N(CC3CCCCC3)C(=O)C2=O)N(CCC2CCCCC2)C1=O
    -6% | -2%
94	O=C(Nc1nc2c(s1)C(=O)CCC2)c1ccccc1
    -11%[1.46 µM] | -20%
95	O=C(c1ccco1)N1CCN(C(=O)c2oc(=O)c3ccccc3c2-c2ccccc2)CC1
    -14% | -4%
96	O=C(Nc1nc(-c2ccc3ccccc3c2)cs1)C1CCN(S(=O)(=O)c2cccs2)CC1
    -4% | -11%
97	Cc1cccc(OCCCC(=O)NCCc2ccccc2)c1
    -18% | -12%
98	CC(C)(C)NC(=O)COC(=O)c1ccc(O)cc1
    -1% | 4%
99	COc1ccc(S(=O)(=O)Nc2cccc3c2O[C@H](CN(C)C(=O)Nc2ccc4c(c2)OCO4)[C@@H](C)CN([C@H](C)CO)C3=O)cc1
    -9% | -27%
100	Cc1ccnc(NC(=O)c2ccc(Cl)c(S(=O)(=O)N3CCCC3)c2)c1
    -2% | -1%
101	COc1ccccc1/C=C/c1cnccn1
    -22% | -16%
102	COc1ccc(NC(=O)c2cnc(SC)nc2C)c(OC)c1
    i | -9%
103	CCC(=O)N1CCN(c2ccccc2NC(=O)COc2cccc(C)c2)CC1
    i | 5%
104	CN1CCN(S(=O)(=O)c2ccc(NC(=S)NC(=O)C3CCCCC3)cc2)CC1
    -4% | -8%
105	COc1ccccc1NS(=O)(=O)c1cc(C(=O)N2CCCC2)ccc1F
    -11% | -5%

Compound activity: PubChem BioAssay, National Center for Advancing Translational Sciences (NCATS)
